# High-throughput results from PubChem.
# Vaccinia mCherry – vaccinia inhibition (mCherry reporter). Vaccinia virus mCherry reporter infection, fluorescence; about a quarter of the inactives have no number. Potency, µM (doses to about 36.5 µM), inactives show at the top dose activity change, negative = inhibition, hits mostly inhibitors. 310,000 compounds, 0.63% hits; active = well fitted inhibition curve with a large enough effect; inconclusive = small, poorly fitted or top-dose-only effect; inactive = no such curve, though single readings can be large or run the other way; tested in A549 cells; further: nearly all actives have a fitted effect of over 35% in size; inactives centre near -10
# VACV Venus inh – vaccinia inhibition (Venus reporter); 330,000 compounds, 0.46% hits; Vaccinia virus Venus reporter expression, fluorescence; Potency, µM (doses to about 36.5 µM), for the others: top-dose activity change, negative = inhibition, hits mostly inhibitors; AID 720580; active means well fitted inhibition curve with a large enough effect; inconclusive means small, poorly fitted or top-dose-only effect; inactive means no such curve, though single readings can be large or run the other way; tested in A549 cells; further: nearly all actives have a fitted effect of over 30% in size; inactives centre near -10
# The depositor's hits bear a star; i = inactive; ? = inconclusive; / = not tested or not shown; [ ] = another dose, or the depositor's remark. On the % scale 0 is the no-effect control and ±100 the full control effect; potency means the concentration at half of the fitted maximal effect.
SMILES,Vaccinia mCherry,VACV Venus inh
COc1ccc(-n2c(Cc3cccn3C)nnc2SCC(=O)Nc2cccc(NC(C)=O)c2)cc1,-18%,-15%
C#CCOCCOCCOCCNc1nc(N2CCOCC2)nc(N2CCN(C(=O)[C@H]([C@@H](C)CC)n3cc(CCCN=C(N)N)nn3)CC2)n1,-1%,-14%
COc1ccc(S(=O)(=O)N(C)C[C@H]2Oc3ccc(NC(=O)CCC(F)(F)F)cc3C(=O)N([C@H](C)CO)C[C@@H]2C)cc1,0%,1%
CC(=O)c1cccc(NC(=O)CNC(=O)Cc2ccccc2)c1,i,1%
COC(=O)c1cccc(NC(=O)C2COc3ccccc3O2)c1 (centres undefined),-17%,-12%
CCc1ccc2oc(-c3ccc(NC(=O)c4cccc(Cl)c4Cl)cc3)nc2c1,i,-15%
CCn1cc(CN2CCN(Cc3ccsc3)C(CCO)C2)cn1 (centres undefined),i,-2%
Cc1nc(-c2nc(-c3c(C(=O)NNC(=O)Nc4cccc(Cl)c4)noc3C)cs2)cs1,i,-16%
Cc1cc(/C=C2/C(=N)N3C(=NC2=O)SN=C3S(C)(=O)=O)c(C)n1-c1ccccc1,i,7%
CCOC(=O)c1cccc(N2C(=O)Nc3ccccc3N2O)c1,i,-16%
NS(=O)(=O)c1cccc(NC(=O)COC(=O)c2ccccc2SCC(=O)N2CCCC2)c1,i,-9%
COc1cc(/C=C/C(=O)OCC(=O)NC(=O)NC(C)(C)C)cc(OC)c1OC,i,-2%
N#C/C(=C\c1cccnc1)C(=O)Nc1ccc(Cl)cc1,?,-3%
C=CCn1c(O)c(N=NC(=S)Nc2cccc(C)c2)c2ccccc21,-23%,-28%
Cc1ccc(C(=O)N/N=C/c2cccc(OC(=O)/C=C/c3ccco3)c2)cn1,4%,-5%
COc1ccc2c(c1)NC(c1ccc(N(C)C)cc1)c1cccn1-2 (centres undefined),-31%,-12%
COc1ccc(Br)cc1CN(C)CC(O)COc1ccc(Br)cc1 (centres undefined),-17%,-3%
Cc1cc(C)n(-c2nc(NCC(C)O)c3c4c(sc3n2)CCCC4)n1 (centres undefined),/,-9%
COc1ccc(CNC(=O)COC(=O)CCCOc2ccc(Cl)cc2Cl)cc1,-6%,-6%
NS(=O)(=O)c1ccc(CNS(=O)(=O)c2ccc(Cl)nc2)cc1,i,-8%
CCOC(=O)C1=C(C)NC(=O)NC1c1ccc(Cl)cc1Cl (centres undefined),i,-16%
COc1ccc(OCC(=O)Nc2ccc(N3CCC(C)CC3)cc2)cc1,-11%,4%
C/C(CC(=O)NCc1ccco1)=N\NC(=O)c1ccc([N+](=O)[O-])cc1Cl,-14%,11%
CCCNC(=O)c1ccc(-c2nc(CS(=O)(=O)c3ccc(C)cc3)c(C)o2)cc1,10%,-3%
CCOc1ccccc1NC(=O)c1ccc(F)c(S(=O)(=O)N2CCN(c3ccc(F)cc3)CC2)c1,-25%,-16%
Cc1cc(OCC(=O)N2CCC[C@@H]2C(=O)O)c2c(C)c(C)c(=O)oc2c1,6%,-5%
COc1ccc(C(=O)NCc2ccc(C)cc2)cc1S(=O)(=O)N1CCOCC1,-20%,-13%
CC(C(=O)Nc1ccc(Cl)cc1Cl)N1CC=C(c2ccccc2)CC1 (centres undefined),-19%,-12%
CCOc1ccc(NC(=O)Cn2c(=O)n(CC(=O)NCCc3ccccc3)c(=O)c3sccc32)cc1,-12%,-9%
Cc1nn(CC(=O)NCCc2ccccc2)c(=O)c2cc3occc3n12,i,-14%
C[C@@H]1CN([C@H](C)CO)C(=O)CCCn2cc(nn2)CO[C@H]1CN(C)C(=O)CCC(F)(F)F,-9%,-15%
CC(C)(CN1CCc2ccccc2C1)NS(=O)(=O)c1ccccc1,?,-5%
O=C(Nc1cc(Cl)ccc1F)C1=COCCO1,1%,-2%
COc1ccc(C(c2nnnn2C2CCCCC2)N2CCN(C/C=C/c3ccccc3)CC2)cc1 (centres undefined),i,-10%
CCCCCCNC(=O)Cc1c(O)c2ccccc2[nH]c1=O,-10%,-3%
O=C(CN(CCc1ccccc1)S(=O)(=O)c1ccc(Cl)cc1)N/N=C/c1ccc2c(c1)OCO2,-4%,-16%
O=C(CN(C(=O)CCC(=O)Nc1nccs1)c1ccccc1F)NCc1ccccc1,i,-9%
CC(C)C(=O)N1CCC1(C)C(=O)NCc1ccc(F)cc1Cl (centres undefined),-1%,-8%
C[C@H](NC(=O)COc1ccccc1)C(=O)OCC(=O)c1cc2ccccc2o1,-15%,6%
COc1ccccc1CNC(=O)CCS(=O)(=O)c1ccc2c(c1)oc(=O)n2C,-3%,-6%
O=C(Nc1ccc2c(c1)OCCO2)C(c1cc2ccccc2o1)N1CCN(C/C=C/c2ccccc2)CC1 (centres undefined),-4%,-11%
CCOC(=O)c1cnc(N)nc1-c1ccccc1,-23%,-12%
Cc1cccc(NC(=O)c2sc(NC(=O)COc3ccccc3)c(C#N)c2C)c1C,-5%,-17%
CC1C(C#N)=C(N)OC2=C1C(=O)CC(c1ccccc1)C2 (centres undefined),-8%,-11%
O=C(COc1ccccc1O)NNc1ccccc1,-2%,2%

# Part of the list above, with two lines to a compound:
# Values run as follows: Vaccinia mCherry	VACV Venus inh
CCn1cc(CN2CCN(Cc3ccsc3)C(CCO)C2)cn1 (centres undefined)
→ i	-2%
Cc1cc(OCC(=O)N2CCC[C@@H]2C(=O)O)c2c(C)c(C)c(=O)oc2c1
→ 6%	-5%
COc1ccc(C(c2nnnn2C2CCCCC2)N2CCN(C/C=C/c3ccccc3)CC2)cc1 (centres undefined)
→ i	-10%
CCCNC(=O)c1ccc(-c2nc(CS(=O)(=O)c3ccc(C)cc3)c(C)o2)cc1
→ 10%	-3%
COc1ccc(OCC(=O)Nc2ccc(N3CCC(C)CC3)cc2)cc1
→ -11%	4%

# (continued)
SMILES,Vaccinia mCherry,VACV Venus inh
O=C(CN1CCOc2ccccc21)N1CCN(c2cccc(Cl)c2)CC1,-23%,-4%
Cc1ccc(C2CC(=O)Nc3cc4c(cc32)OCCO4)cc1 (centres undefined),-12%,-8%
CCOC(=O)C1(Cc2cccc(OC)c2)CCN(Cc2cnc(N)nc2)CC1,i,-10%
Cc1cc(C)c(S(=O)(=O)c2cccc(Br)c2C)c(=O)[nH]1,-17%,-17%
COc1ccc(C)cc1NC(=O)c1nnn(CC(=O)Nc2c(C)cccc2C)c1N,-9%,-17%
Cc1ccc(Cl)cc1-n1ncc2c(NC3CCCCC3)ncnc21,-22%,-9%
CC(=O)Nc1cc(-c2nn3c(C)nnc3s2)ccc1C,0%,-9%
CN(Cc1ccccc1)C(=O)c1cccc(NC(=O)Cc2ccc(NC(=O)C3CCCN(C(=O)C4CCCCC4)C3)cc2)c1 (centres undefined),0%,-23%
CC1CC(=O)Nc2ccccc2N1C(=O)COc1ccc2cc(Br)ccc2c1 (centres undefined),-28%,-28%
Cc1ccc2c(CN3CC=C(c4ccccc4)CC3)cc(=O)oc2c1C,-1%,-10%
CCCCn1cc(S(=O)(=O)c2cc(C)ccc2C)c(=O)c2cc(F)c(F)cc21,-19%,-12%
Cc1ccccc1C(=O)Nc1ccccc1-n1cccc1,1%,-14%
CCCN(CCC)CCNC(=O)c1cc(Sc2ccc(Cl)cc2)nc2ccccc12,?,-22%
Cc1ccc(-c2noc(CCC(=O)Nc3ccccc3N3CCN(C)CC3)n2)cc1,/,?
O=C(Cc1ccccc1)c1ccc(O)cc1O,-11%,-13%

# Sorted by formula weight (lowest first): some entries from above
SMILES,Vaccinia mCherry,VACV Venus inh
Cc1ccc2c(CN3CC=C(c4ccccc4)CC3)cc(=O)oc2c1C,-1%,-10%
Cc1cc(C)c(S(=O)(=O)c2cccc(Br)c2C)c(=O)[nH]1,-17%,-17%
Cc1ccc(-c2noc(CCC(=O)Nc3ccccc3N3CCN(C)CC3)n2)cc1,/,?

# For convenience, some entries already given.
SMILES,Vaccinia mCherry,VACV Venus inh
CCCN(CCC)CCNC(=O)c1cc(Sc2ccc(Cl)cc2)nc2ccccc12,?,-22%
Cc1ccc(-c2noc(CCC(=O)Nc3ccccc3N3CCN(C)CC3)n2)cc1,/,?
O=C(Cc1ccccc1)c1ccc(O)cc1O,-11%,-13%

# (listing goes on)
SMILES,Vaccinia mCherry,VACV Venus inh
CC(C)CC1NC(=O)c2cccnc2-n2c1nc1cc(F)ccc1c2=O (centres undefined),i,-12%
COc1ccc(OC)c(/C=N\NC(=O)c2ccc(=O)n(C)c2)c1,-7%,-1%
COc1c(Cl)cccc1-c1cn2ccc(C)cc2n1,i[7.34 µM],4%[7.34 µM]
COc1cc(C2C3=C(Nc4nc(N)[nH]c(=O)c42)c2ccccc2C3=O)ccc1O (centres undefined),i,0%
O=C(CSc1nnc(Cc2ccccc2)o1)c1ccc(F)cc1,-3%,-12%
COc1ccc(C2C(C#N)=C(N)Oc3cc(C)[nH]c(=O)c32)cc1OC (centres undefined),-7%[7.34 µM],4%[7.34 µM]
CCOc1ccc(C(=O)Nc2cccc(C(=O)OCc3cc(=O)n4nc(C5CC5)sc4n3)c2)cc1,?,?
Cc1ccnc(NC(=O)c2cccc3ccccc23)c1,i,-21%
N#Cc1cccc(NC(=O)C2CCN(c3nc(-c4ccc(Cl)cc4)no3)CC2)c1,-12%[7.34 µM],-12%[7.34 µM]
CCC(=O)N(C)C(c1ccccc1Cl)c1nnnn1-c1c(C)cccc1C (centres undefined),-29%,-16%
CC1(C)SC2c3ccccc3C(=O)N2C1C(=O)O (centres undefined),i,-6%
COc1ccc(N2CCN(CC(O)c3c[nH]c4ccc(OC)cc34)CC2C)cc1 (centres undefined),/,?
N#Cc1c(NC(=O)CSc2n[nH]c(N)n2)oc(-c2ccccc2)c1-c1ccccc1,i,-12%
Cc1cc(C)nc(NC(=O)/C=C/c2ccc(Cl)cc2)n1,-5%,-7%
Cc1ccc(C(=O)OCC(=O)N2c3ccccc3NC(=O)C2(C)C)cc1S(=O)(=O)N1CCCCC1,i,7%

# Another view of some results above:
Compound	Vaccinia mCherry	VACV Venus inh
O=C(Cc1ccccc1)c1ccc(O)cc1O	-11%	-13%
CC(C)CC1NC(=O)c2cccnc2-n2c1nc1cc(F)ccc1c2=O (centres undefined)	i	-12%

# (cont.)
SMILES,Vaccinia mCherry,VACV Venus inh
CC1CN(c2ccc([N+](=O)[O-])cn2)CC(C)O1 (centres undefined),-12%[7.34 µM],-6%[7.34 µM]
COc1ccc(CC(=O)NNC(=O)CSc2nnc(C)n2-c2ccccc2)cc1,-7%,2%
CC1(C)O[C@@H]2[C@@H](CO[C@@]3(COS(N)(=O)=O)OC(C)(C)O[C@@H]23)O1,i,-18%
C#CCOCCOCCOCCNc1nc(N2CCN(C(=O)[C@H]([C@@H](C)O)n3cc(CCCCN)nn3)CC2)nc(N2CCN(C(=O)[C@H](C)n3cc(CCC(=O)O)nn3)CC2)n1,-13%,-17%
COc1ccc(NS(=O)(=O)c2cccc(NC(=O)NC3CCCCC3)c2)cc1,-4%,?
CCOC(=O)Cc1nn(Cc2nc(-c3ccc(C#N)cc3)cs2)c(=O)c2ccccc12,-2%,-4%
COc1ccc(C(=O)Nc2sc(C)c(-c3ccccc3)c2C#N)cc1OC,-24%,?
NC(=O)c1oc2ccccc2c1NC(=O)c1ccc(F)cc1,3%,-20%
COc1ccccc1Nc1nc(Cl)nc(NC(C)(C)C)n1,-13%,-10%
Cc1ccc(C)[n+](CC(=O)c2ccc(-c3ccccc3)cc2)c1,-3%,-19%
COc1ccc(NC(=O)Cn2ccc(C(F)(F)F)n2)cc1S(=O)(=O)N1CCOCC1,i,-14%
CN(C)CCSc1nnc2sc3ccccc3n12,-10%,-2%
CCN(CC)c1ccc(N=Nc2nn(C)c(C)c2[N+](=O)[O-])cc1,-10%,-14%
Cc1cc(C)cc(-n2c(SCC(=O)NCc3ccc(F)cc3)nc3c([nH]c4ccccc43)c2=O)c1,?,?
CCn1c(O)c(C=NCc2cccs2)c(=O)n(CC)c1=S,-9%,-29%
CCc1ccc(C(=O)CSC2=C(C#N)C(c3ccco3)C(C(C)=O)=C(C)N2)cc1 (centres undefined),-13%,-5%
COCC(=O)N1CCc2ccc(NC(=O)c3ccc(C(F)(F)F)cc3)cc2C1,i,-13%
CCCCCc1cc(=O)oc2c(C(CCN3CCCC3)c3ccc(N(C)C)cc3)c(OC)cc(OC)c12 (centres undefined),?,?
Cc1ccc(-n2c(=O)c3c4c(sc3n(Cc3cccc(Cl)c3)c2=O)CCC4)cc1C,-3%,-1%
O=C(NCc1cccs1)c1cccn2c(=O)c3sccc3nc12,-3%,12%
Cc1ccc(-c2cc(-c3ccccc3)c(C#N)c(N)n2)o1,-14%,1%
COc1ccc(NC(=O)CC2(CC(=O)N3CCOCC3)CCCC2)cc1Cl,-13%,-11%
Cc1cccc(-n2c(C)nc3ccc(Cl)cc3c2=O)c1,-9%,-2%
COc1ccc(NS(=O)(=O)c2cc(OC)ccc2OC)cc1,i,-9%
CCOC(=O)C1(CCCc2ccccc2)CCN(Cc2cnn(C)c2)CC1,i,-23%
CCOc1ccc(NC(=O)CSc2oc(-c3cccs3)nc2S(=O)(=O)c2ccc(Cl)cc2)cc1,?,?
O=C(Cn1cnc2c(nnn2Cc2ccc(Cl)cc2)c1=O)N1CCCc2ccccc21,20%,0%
CCOC(=O)c1cc(OC(=O)c2ccccc2OC)n(-c2ccccc2)n1,0%,-5%
